rRNA inh HTS: selective bacterial rRNA inhibition in E. coli; 350,000 tested, 1.6% active; E. coli WT GFP vs humanized-ribosome RFP mutants, fluorescence, 24 h; active compounds read low; DMSO median 0, no signal -100; GFP signal change (wild-type ribosome), % (test concentration not listed);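 active means significant combined selectivity score with lowered wild-type GFP, culture density cut under 30%, mutant RFP and density less affected; inactive means any of these conditions unmet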; further: one replicate is shown; some compounds called inactive have numbers as strong as hits
Calb FLC: C. albicans growth modulation with fluconazole; growth inhibition, % (test concentration not listed); 300,000 tested, 0.57% active; C. albicans CaCi-2 (fluconazole-resistant clinical isolate) + fluconazole, Alamar Blue growth, 48 h;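 active means most replicates above 75%; inconclusive means exactly half above 75%; inactive means most below 75%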;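 further: all wells also contain fluconazole at 8 µg/ml as a sub-toxic cotreatment; 0% = median of DMSO wells and 100% = median of geldanamycin control wells; wells of about 8 µL received 7.5 nL stock; the first replicate is given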
LANA-H2A inh: blocks KSHV LANA binding to histone H2A/H2B; inhibition, % (test concentration not listed); cell-free LANA-H2A/H2B peptide, fluorescence polarization; 320,000 tested, 0.6% active; Q9QR71; in the data active means inhibition mostly above about 10%, no sharp cut-off; inactive means mostly below about 6.7%;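 further: stock transfer was 7.5 nL into about 10 µL; 0% = median of vehicle wells and 100% = median of positive control wells; one replicate is shown; the record names a cut of 25% in any replicate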
B2AR ag: agonists of human beta-2 adrenergic receptor inducing internalization; P07550; Am2.2-beta2AR cells, FAP receptor internalization, flow cytometry; reference of the scale not given here; response, % (concentration not given with the values); 340,000 tested, 0.43% active; AID 504454;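 active means response above a set limit, near 3 SD of response in nonfluorescent compounds, cut at about 42% in these data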;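 further: stock transfer was 100 nL into about 11 µL; a reference agonist was the positive control; negative values mostly stem from fluorescent compounds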
Target sequence (P07550 whole entry, looked up): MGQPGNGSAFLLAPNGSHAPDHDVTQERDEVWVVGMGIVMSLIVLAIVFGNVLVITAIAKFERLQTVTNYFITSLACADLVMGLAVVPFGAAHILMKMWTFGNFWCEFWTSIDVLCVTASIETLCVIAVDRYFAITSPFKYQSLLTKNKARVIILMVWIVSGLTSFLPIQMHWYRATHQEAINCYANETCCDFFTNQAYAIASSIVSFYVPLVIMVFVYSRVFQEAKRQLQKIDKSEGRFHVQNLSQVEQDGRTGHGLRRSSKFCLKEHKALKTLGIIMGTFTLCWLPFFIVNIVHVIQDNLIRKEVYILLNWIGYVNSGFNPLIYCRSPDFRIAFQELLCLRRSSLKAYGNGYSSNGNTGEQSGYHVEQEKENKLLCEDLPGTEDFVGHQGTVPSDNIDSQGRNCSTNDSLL
Beta apoptosis: beta cell apoptosis inhibition; INS-1E cytokine-induced death, ATP luminescence, 48 h; percent of positive-control rescue, neutral wells zero; protection from apoptosis, % (test concentration not listed); 300,000 tested, 0.8% active; AID 435005;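 active means all replicates at 75% or more, or half of them and the mean; inconclusive means half reach 75% but not the mean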;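 further: 0% = cytokine-treated negative control wells and 100% = positive control rescue; higher means more ATP so stronger rescue from cytokine killing; wells of about 40 µL received 100 nL stock; the first replicate is given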
T cruzi repl: T. cruzi replication inhibition; T. cruzi beta-gal in NIH3T3, luminescence, 90 h; inhibition, % (no concentration beside the values); 300,000 tested, 1.4% active; AID 1885;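 active means mean inhibition across valid replicates above about 55%, limit read from the data; inconclusive means mean below that limit but half or more replicates reach it; inactive means mean below it, under half of replicates reach it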;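 further: signal also drops with host cell toxicity which is not excluded here; 0% = plate median of DMSO wells and 100% = zero luminescence signal; higher percent means less beta-gal luminescence so fewer parasites; stock transfer was 50 nL into about 50 µL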
ALR H2O2 inh: human ALR oxidase inhibition via reduced H2O2. AID 485317. purified ALR, DTT oxidation, H2O2 HRP-luminol luminescence. P55789. 290,000 tested, 3.8% active. inhibition, % (concentration not given with the values);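 active means mean and each replicate at 75% or more; inconclusive means only one of the two met; inactive means neither met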;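 further: stock transfer was 7.5 nL into about 7.5 µL; 0% = neutral wells and 100% = wells with inactivated enzyme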
Target sequence (P55789 whole entry, looked up): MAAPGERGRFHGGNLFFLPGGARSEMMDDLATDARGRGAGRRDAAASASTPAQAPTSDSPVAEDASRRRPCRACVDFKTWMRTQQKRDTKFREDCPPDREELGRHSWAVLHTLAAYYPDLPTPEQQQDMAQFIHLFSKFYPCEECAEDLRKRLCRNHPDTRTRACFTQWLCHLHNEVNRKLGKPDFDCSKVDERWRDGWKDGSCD
A1 inh: inhibitors of the anti-apoptotic protein A1, read as caspase activation; caspase activation, % (concentration not given with the values); AID 2462; MEF A1-2A-BIM cells, Caspase-Glo 3/7 luminescence, 3 h; percent of clofoctol response, vehicle zero; 330,000 tested, 0.066% active;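 active means over half of replicate activation scores above 10%, or exactly half above 10 with the replicate mean above 10; inconclusive means replicate mean below 10 yet half the replicates above 10; inactive means over half of replicates below 10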;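 further: wells of about 30 µL received 50 nL stock; many hits fall short of the cut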
rRNA inh HTS OD600: also measured in rRNA inh HTS; calls as there; OD600 change, %; measured here: OD600 growth;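 optical density of the mix in the first replicate; 0 = DMSO median and -100 = no signal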
rRNA inh HTS RFP: also measured in rRNA inh HTS; calls as there; RFP signal change, %; measured here: RFP humanized mutant strains;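 first replicate; 0 = DMSO median and -100 = no signal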
The depositor's hits bear a star; ? = inconclusive; nt = no result given.

Structure	rRNA inh HTS	rRNA inh HTS OD600	rRNA inh HTS RFP	Calb FLC	LANA-H2A inh	B2AR ag	Beta apoptosis	T cruzi repl	ALR H2O2 inh	A1 inh
O=S(=O)(Nn1cnnc1)c1ccccc1Cl	nt	nt	nt	1	-6.9	-3	1	-28	2	2.1
CC(C)[C@H](NC(=O)OCc1ccccc1)C(=O)OCc1cc(=O)oc2cc(O)ccc12	-11	-7	-0.1	8	-2.7	11	nt	-1	-14	-0.3
O=C(Nc1ccc(N2CCN(C(=O)c3ccco3)CC2)cc1)c1ccc2c(c1)OCO2	nt	nt	nt	-27	3.3	1	1	-13	2	0.8
Cc1cccc(NC(=O)C2CCCN2S(=O)(=O)c2ccc(F)cc2)c1C (stereo not drawn)	nt	nt	nt	-33	-2.6	5	-1	-21	-7	-0.1
CCc1ccc(Nc2ccc(S(=O)(=O)N3CCOCC3)cc2[N+](=O)[O-])cc1	nt	nt	nt	8	-3.9	-1	21	11	nt	0.1
COc1ccc(C(=O)NC(=S)NNC(=O)c2c(-c3ccccc3)noc2C)cc1	-30	-43	-19	33	7.6	1	7	-27	99*	-0.4
CC(Sc1nnc(Nc2ccccc2)s1)C(=O)Nc1nc(-c2ccccc2)cs1 (stereo not drawn)	0	18	17	-2	0.0	-154	1	6	-8	-0.5
NS(=O)(=O)c1ccc(NC(=O)CCC(=O)c2ccc(Cl)s2)cc1	-2	-2	1.1	-9	-0.8	2	0	7	-1	-0.9
Clc1ccc2[nH]c3c(c2c1)CNCC3	13	9	3.8	4	8.2	12	nt	23	nt	-0.1
CCN(CCCNC(=O)c1cn(CC)c2ccc(S(=O)(=O)N(C)C)cc2c1=O)c1cccc(C)c1	nt	nt	nt	28	-0.3	-8	18	34	13	0.7

Sorted by the number under ALR H2O2 inh (rising): some entries from above.
mol	ALR H2O2 inh
Cc1cccc(NC(=O)C2CCCN2S(=O)(=O)c2ccc(F)cc2)c1C (stereo not drawn)	-7
O=S(=O)(Nn1cnnc1)c1ccccc1Cl	2
CCN(CCCNC(=O)c1cn(CC)c2ccc(S(=O)(=O)N(C)C)cc2c1=O)c1cccc(C)c1	13

Further records.
Structure	rRNA inh HTS	rRNA inh HTS OD600	rRNA inh HTS RFP	Calb FLC	LANA-H2A inh	B2AR ag	Beta apoptosis	T cruzi repl	ALR H2O2 inh	A1 inh
Cc1ccc(N=Cc2cc(Cl)cc(Cl)c2O)nc1	-1	-10	7.3	8	-0.9	7	1	-5	-10	1.1
Cc1nn(CC(=O)NCCCN2CCCC2)c(=O)c2nn(-c3ccccc3)c(C)c12	-2	-1	0.6	-1	0.3	-21	-2	-4	2	0.2
CCCN(C(=O)c1cccc(-n2cccc2)c1)c1c(N)n(Cc2ccccc2)c(=O)[nH]c1=O	0	5	-1.9	4	0.4	3	-5	5	-13	0.9
COCCn1nnnc1C(c1ccccc1)N1CCN(c2ccccc2)CC1 (stereo not drawn)	nt	nt	nt	4	0.6	-2	1	2	97*	-0.1
COc1ccc(C(=O)Nc2ccc3oc(-c4cccc(Cl)c4)cc(=O)c3c2O)cc1	nt	nt	nt	-1	3.5	-5	46	23	5	0.4
CC(C)(C)c1nn2cnnc2n(/N=C/c2cccc3ccccc23)c1=O	4	3	0.0	-1	0.2	14	-2	-5	0	0.4
CC(C)(/C=N/NC(=O)CSCc1ccc(Cl)cc1)CCC#N	-2	1	2.8	-23	0.4	-2	-1	-10	12	-0.9
COc1ccc(CN(C(=O)c2snc(C(N)=O)c2N)C(CC(C)C)C(=O)NC2CCCCC2)cc1 (stereo not drawn)	4	2	-1.5	37	-1.8	6	3	-8	0	-0.1
Cc1cc(Cl)ccc1OCC(=O)NNC(=O)c1ccco1	5	-2	3.4	6	-5.9	3	-6	0	-2	0.3
OCC[C@H]1C[C@H](O)[C@@H](O)[C@@]2(CCc3ccccc3CO2)O1	13	8	-0.4	nt	-3.5	7	-6	nt	0	0.8
Fc1ccc(C2CC(c3cccs3)=NN2C(=S)Nc2ccccc2)cc1 (stereo not drawn)	nt	nt	nt	-4	-5.4	7	2	31	-3	0.3
COc1cc(C(=S)N2CCOCC2)cc(Br)c1OS(=O)(=O)c1ccccc1	-7	-8	1.0	-18	-0.3	-6	-1	1	nt	-0.5
CC(=O)Nc1nc(N(C)C)nc(N(C)C)n1	34	20	1.2	-1	-4.0	5	-6	-8	-4	0.0
O=C1CSC2=NCN(c3ccccc3)CN12	nt	nt	nt	-8	1.5	-2	-2	-6	29	0.5
CCOC(=O)CSCC(=O)N1N=C(c2cccs2)CC1c1ccc(F)cc1 (stereo not drawn)	-18	-23	9.9	-7	4.5	-2	-4	2	4	3.2
COc1cc(CC(=O)Nc2ncc(C)s2)cc(OC)c1OC	nt	nt	nt	1	5.0	6	-4	-16	2	-1.2
O=C(c1ccccn1)c1ncc(C(F)(F)F)cc1Cl	nt	nt	nt	0	-2.9	16	-2	-5	48	-0.4
Fc1ccc(N2CCN(C(c3cccs3)c3nnnn3CCc3ccccc3)CC2)cc1 (stereo not drawn)	nt	nt	nt	1	0.9	2	30	7	2	0.2
Clc1ccc(OCc2nn3c(C4CCCCC4)nnc3s2)c(Cl)c1	nt	nt	nt	-17	-3.0	-9	-1	17	-6	1.5
Cc1c(CCOC(=O)CC23CC4CC(CC(C4)C2)C3)sc[n+]1CC(=O)c1ccc(Br)cc1	nt	nt	nt	4	-3.2	2	38	13	2	0.8
Cc1ccc(C(=O)N/N=C/c2cn(Cc3ccccc3)c3ccccc23)cn1	nt	nt	nt	-1	-2.4	4	-4	2	-9	0.1
N=c1sccn1CC(=O)N1CCc2ccccc21	nt	nt	nt	3	-0.4	-8	-1	6	-11	0.7
Nc1ccc(C#Cc2ccccc2)cc1	nt	nt	nt	43	0.2	9	3	-9	?	-0.3
COc1ccccc1C(CNC(=O)c1cccc(S(=O)(=O)Nc2ccc(C)cc2)c1)N1CCCC1 (stereo not drawn)	0	2	-0.2	-8	-6.5	3	5	-20	0	0.0
Cn1c(=O)n(C)c2cc(C(=O)Nc3ccc4c(c3)OCO4)ccc21	2	4	-0.7	-6	8.1	4	-23	-8	nt	-0.3
CCNC(=S)N1CCN(CC)CC1	7	4	-5.0	6	-1.9	1	-5	2	nt	0.9
O=C(O)CCNC(=O)c1ccc(NC(=O)Cc2ccc(Cl)cc2)cc1	9	-1	0.0	0	-5.3	1	-14	1	-1	-0.9
Cc1ccc(-c2cc(NC(=O)c3ccccc3[N+](=O)[O-])n[nH]2)cc1	0	10	0.6	-19	-2.7	9	3	23	-7	0.1
COc1ccc(NC(=O)c2ccc(NCCN3C(=O)CCC3=O)c([N+](=O)[O-])c2)cc1	20	22	1.9	15	2.0	4	-1	5	-2	0.0
Cn1c(Cn2c(=O)sc3ccccc32)nnc1SCc1ccccc1	2	-1	-0.1	6	7.7	-12	-4	5	-6	-1.0
O=C(NCCN1CCOCC1)c1ccc(Cl)c(S(=O)(=O)N2CCCCC2)c1	1	13	-0.2	2	2.6	13	-3	3	0	0.3
CCn1c(CSc2ncccn2)nnc1SCC(=O)N1CCc2ccccc21	nt	nt	nt	-6	0.2	20	2	30	-9	0.2
Clc1nnc(N/N=C/c2ccccc2)c2ccccc12	nt	nt	nt	19	0.7	-8	6	-17	22	-8.6
Cc1ccc(S(=O)(=O)N2CCC(C(=O)NC3CCCCC3C)CC2)cc1 (stereo not drawn)	7	4	1.0	0	-7.5	1	-1	1	-11	0.2
Cc1occc1C(=O)N/N=C/c1ccc(-c2ccccc2)cc1	-1	10	0.2	-7	-0.6	16	50	-3	0	-0.6
CCCc1cc(C(=O)OC)c2ccccc2n1	nt	nt	nt	5	nt	3	-2	-20	nt	0.8
O=C(Cc1ccc(-n2c(=O)[nH]c3ccccc3c2=O)cc1)N1CCN(c2ccccc2)CC1	nt	nt	nt	2	1.3	-13	13	-1	24	-0.1
CCN1CCN(CCCNC(=O)c2ccc3c(c2)N(Cc2ccccc2)CCS3)CC1	-3	-10	-0.3	-8	7.3	9	5	21	99*	1.0
Cn1c(SCC(=O)N2CCN(c3ccccc3)CC2)nnc1-c1cc2ccccc2o1	nt	nt	nt	-8	-7.1	-1	-1	-2	nt	-0.4
COc1ccccc1COC(=O)c1ccc(S(=O)(=O)N2CCOCC2)cc1	6	-15	-3.3	nt	1.2	22	-7	nt	1	0.2
COc1cc(/C=C2/C(=N)N3C(=NC2=O)SN=C3S(=O)(=O)C(C)C)ccc1OC(=O)c1ccco1	8	4	4.4	13	3.3	-1	3	-22	44	0.4
O=c1cc(N2CCCC2)c(-c2ccccc2)n[nH]1	15	2	-0.2	-5	4.3	-6	1	-6	2	-0.1
CNc1ccc(Br)cc1C(O)c1ccccc1 (stereo not drawn)	-1	5	-0.6	-15	5.0	-7	-7	-9	59	?

Compounds shown so far that have a nitro group on carbon (three):
Structure	rRNA inh HTS	rRNA inh HTS OD600	rRNA inh HTS RFP	Calb FLC	LANA-H2A inh	B2AR ag	Beta apoptosis	T cruzi repl	ALR H2O2 inh	A1 inh
CCc1ccc(Nc2ccc(S(=O)(=O)N3CCOCC3)cc2[N+](=O)[O-])cc1	nt	nt	nt	8	-3.9	-1	21	11	nt	0.1
Cc1ccc(-c2cc(NC(=O)c3ccccc3[N+](=O)[O-])n[nH]2)cc1	0	10	0.6	-19	-2.7	9	3	23	-7	0.1
COc1ccc(NC(=O)c2ccc(NCCN3C(=O)CCC3=O)c([N+](=O)[O-])c2)cc1	20	22	1.9	15	2.0	4	-1	5	-2	0.0

An excerpt; count on the stated rates, not on these rows.
